GALR2 ag = agonists of human galanin receptor 2 (GALR2); activation, %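 (tested at 5 µM)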; O43603; hit rate 0.48% among 140,000; GALR2-expressing cells, agonist activation read-out;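 active = above mean plus 3 SD of all compounds, about 5% in these data, not always enough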;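 also: 0% = vehicle buffer wells and 100% = reference agonist at full effect; tested in CHO reporter cells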
Target sequence (O43603 whole entry, looked up): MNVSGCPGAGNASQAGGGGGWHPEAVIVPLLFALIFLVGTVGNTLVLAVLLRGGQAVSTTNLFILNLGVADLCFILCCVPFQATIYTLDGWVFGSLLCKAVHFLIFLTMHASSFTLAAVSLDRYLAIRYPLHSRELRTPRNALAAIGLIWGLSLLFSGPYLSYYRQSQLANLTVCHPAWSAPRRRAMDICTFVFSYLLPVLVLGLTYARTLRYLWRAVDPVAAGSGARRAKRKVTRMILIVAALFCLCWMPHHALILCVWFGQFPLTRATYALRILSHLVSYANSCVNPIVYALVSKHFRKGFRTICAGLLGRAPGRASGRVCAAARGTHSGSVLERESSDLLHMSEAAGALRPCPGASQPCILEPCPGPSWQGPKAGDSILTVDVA
PKD1 kinase inh = PKD1 (human) kinase inhibition; PKD1 kinase fluorescence polarization assay; hit rate 0.056% among 200,000; inhibition, %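 (about 10 µM by stock and volumes)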; Q15139; AID 797;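 active = inhibition of 50% or more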;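 also: controls were vehicle for no effect and a reference inhibitor for full effect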
HSV augment = increases HSV replication in cells | HSV replication augmentation in cells, fold increase | hit rate 0.005% among 220,000 | maximum fold increase | AID 1956;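 active = peak rise of 1.5-fold or more in the series; tested in PC3 cells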;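 also: first round at 10 µM; read as green reporter fluorescence; hits show the peak of a series up to 25 µM; 1 = signal of infected wells without compound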
RGS16-Gao HTS = modulates binding between human RGS16 and Galphao | O15492+P09471 | hit rate 0.38% among 220,000 | binding response (% of control), % at 10 µM | bead-based flow cytometry RGS16-Galphao binding, fluorescence; actives lie on both sides;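 active = below 25% or above 175%, edge rows of some plates excepted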;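 also: Galphao activated by GDP with aluminum fluoride before binding; 100% = wells without compound and 0% = beads without RGS; some results beyond the cut were filed as inactive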
Target sequence (O15492 whole entry, looked up): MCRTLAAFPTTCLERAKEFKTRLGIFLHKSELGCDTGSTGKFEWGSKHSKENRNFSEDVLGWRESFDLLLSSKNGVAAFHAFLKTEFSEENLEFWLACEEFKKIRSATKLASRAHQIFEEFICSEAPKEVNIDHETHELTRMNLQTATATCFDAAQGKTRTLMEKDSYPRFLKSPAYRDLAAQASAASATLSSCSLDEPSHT
Target sequence (P09471 whole entry, looked up): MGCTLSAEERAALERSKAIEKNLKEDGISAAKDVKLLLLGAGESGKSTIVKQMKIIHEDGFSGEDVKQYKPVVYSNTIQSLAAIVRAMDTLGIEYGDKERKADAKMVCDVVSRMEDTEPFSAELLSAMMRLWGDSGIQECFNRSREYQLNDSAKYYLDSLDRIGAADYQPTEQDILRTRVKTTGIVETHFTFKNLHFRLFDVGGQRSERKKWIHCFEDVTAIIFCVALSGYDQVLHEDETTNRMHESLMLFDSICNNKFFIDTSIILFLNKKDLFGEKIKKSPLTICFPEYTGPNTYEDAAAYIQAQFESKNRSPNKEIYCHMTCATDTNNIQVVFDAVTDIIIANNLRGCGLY
INS promoter inh = TRM-6 insulin promoter activity inhibition | TRM-6 cells (human fetal islet line), insulin promoter-eGFP reporter, imaging; reporter expression induced with tamoxifen | inhibition, % at 2 µM | hit rate 0.9% among 130,000;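 active = inhibition above the mean plus 3 SD, with well images judged a real hit on visual review, cut at about 60% in these data, passing the limit was not always enough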
INS promoter inh cell count = also measured in INS promoter inh; calls as there; normalized cell count, %; measured here: cell count, toxicity; reference of the scale not given here;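 cells exposed to compound for 48 h; stained nuclei by imaging scaled within each plate; lower means fewer cells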
HSV augment primary fold = recorded beside HSV augment, whose call it bears; fold increase; compound at 10 µM; measured here: primary screen fold increase 10 uM; tested in PC3 cells;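 GFP signal in the first replicate; 1 = infected wells without compound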
Starred values were filed as active, the others as inactive; i = inactive; x = not tested or not shown.

Start of the data: the first two compounds, to show the layout:
compound	GALR2 ag	RGS16-Gao HTS	PKD1 kinase inh	HSV augment	INS promoter inh	HSV augment primary fold	INS promoter inh cell count
O=C(Nn1c(=O)[nH]c2ccccc2c1=O)c1ccco1	-2.8	96	-3	i	x	0.99	x
CC(C)[C@H](NC(=O)Nc1ccc(S(N)(=O)=O)cc1)C(=O)O	-0.8	104	3	i	x	1.1	x

The list itself, from the first entry:
compound	GALR2 ag	RGS16-Gao HTS	PKD1 kinase inh	HSV augment	INS promoter inh	HSV augment primary fold	INS promoter inh cell count
O=C(Nn1c(=O)[nH]c2ccccc2c1=O)c1ccco1	-2.8	96	-3	i	x	0.99	x
CC(C)[C@H](NC(=O)Nc1ccc(S(N)(=O)=O)cc1)C(=O)O	-0.8	104	3	i	x	1.1	x
N/C(=N\OC(=O)c1ccc2ccccc2c1)c1cccc([N+](=O)[O-])c1	-0.3	108	-8	i	x	1.1	x
O=C(O)c1ccc(N2CCCCC2)cc1	-1.4	99	-1	i	-12	0.86	85
Cc1c(C(=O)NCC2COc3ccccc3O2)oc2ccc(S(=O)(=O)N3CC(C)CC(C)C3)cc12 (centres undefined)	-0.8	100	-3	i	-4	1	130
C#CCOCCOCCOCCNc1nc(N2CCOCC2)nc(N2CCN(C(=O)[C@H](Cc3cc4ccccc4[nH]3)n3cc([C@@H](N)CC(C)C)nn3)CC2)n1	x	102	-10	i	x	0.88	x
CCn1c(Cc2ccc(OC)cc2)nnc1SCC(=O)N1CCN(c2ccccc2)CC1	1.4	101	0	x	x	x	x
CSc1ccc(N=Nc2c(C)[nH]n(C)c2=O)cc1	x	97	x	i	x	0.88	x
O=C(CSc1nnc(Nc2ccccc2)s1)Nc1cccc(S(=O)(=O)N2CCCCC2)c1	-0.9	39	-2	i	x	1.1	x
N#CCC(=O)c1sccc1-n1cccc1	x	104	-7	i	7	1.1	80
CN=C(c1ccccc1)c1c(C)cccc1C	-0.4	71	-8	i	-52	1	71
CC(C)(C)NC(=O)C(c1ccsc1)N(CCc1ccccc1)C(=O)Cn1nnc2ccccc21 (centres undefined)	-4.1	104	-2	i	-80	0.81	123
c1ccc(-c2cn3nc(-c4ccccc4)cnc3n2)cc1	0.9	107	0	i	x	0.97	x
COCCN(Cc1nc(C2(c3ccc(C)cc3)CCCC2)no1)C(C)C	x	98	2	i	x	1.1	x
O=C(c1ccccc1[N+](=O)[O-])n1cnc2ccccc21	x	101	7	i	x	0.95	x
Cc1ccc(Oc2cc(N3CCOCC3)nc(-c3ccccc3)n2)cc1	0.4	139	-9	i	13	0.96	96
O=C(CN1CCCCC1)NCC1(c2ccccc2)CCCC1	x	108	-3	i	x	0.98	x
O=C1CC(c2cccc([N+](=O)[O-])c2)c2cc3c(cc2N1)CCC3 (centres undefined)	x	94	-6	i	-41	0.93	97
CC1(C)CC(=O)c2cc(C(=O)NNc3ccccc3)c(=O)n(-c3ccccc3)c2C1	x	103	2	i	-44	0.9	105
Cc1nnc(SCC(=O)Nc2ccc(N3CCOCC3)cc2)o1	-3.5	103	1	i	35	0.92	68
COC(=O)c1ccc(COc2ccccc2/C=N/NC(N)=O)o1	x	103	x	i	x	0.97	x
CCOc1ccc(Cl)cc1S(=O)(=O)n1nnc2ccccc21	-0.5	99	-6	i	-169	1	133
O=C(Nc1ccc(CN2CCOCC2)cc1)c1cc2ccccn2n1	0.1	102	-2	i	x	0.87	x
Cc1cc(SCCC(=O)O)nc2ccccc12	-0.3	x	-10	i	-23	0.97	77
NC(=O)CC(NC(=O)Cc1ccc(Br)cc1)c1ccc(NCCOc2ccccc2)c([N+](=O)[O-])c1 (centres undefined)	x	96	x	i	x	0.73	x
COc1ccc(CNC(=O)c2cccnc2Sc2ccc(Cl)cc2)cc1	-0.7	98	-8	i	-43	1.4	114
COC(=O)CNC(=O)CN1c2cccc3cccc(c23)S1(=O)=O	-1.3	99	-1	i	-125	1.1	104
O=C(Nc1ccccc1C(=O)NCCN1CCOCC1)c1ccc(Cl)cc1Cl	x	103	-4	i	x	1	x
COC(=O)CSc1nnc(-c2sc3ccccc3c2Cl)o1	-3.2	131	1	i	x	0.89	x
CNc1nc(Oc2ccccc2C(=O)OC)nc(SC)n1	-3.1	109	-13	i	37	1.1	95
C=CCn1c(N)c(C(=O)NCc2cccnc2)sc1=S	-0.7	102	3	i	11	1	87
COCCCNC(=O)c1ccc(-n2nc(C(F)(F)F)cc2-c2cccs2)cc1	-5.1	97	-8	i	45	0.92	104
COc1ccc(C(=O)NC(CC(C)C)C(=O)O)cc1OC (centres undefined)	-0.4	103	-11	i	34	0.91	100
CSc1ccc(/C=N/n2c(Cc3ccc(Br)cc3)n[nH]c2=S)cc1	x	98	-3	i	-18	0.96	163
COc1ccc(CCNC(=S)NC(=O)c2c(-c3ccccc3Cl)noc2C)cc1OC	x	90	x	i	x	1.1	x
CCNC(=O)CN1C(=O)NC(CCc2ccccc2)C1=O (centres undefined)	-2.9	102	-6	i	-38	1	177
CCc1ccccc1NC(=O)CSC1=C(C#N)C(c2ccc3c(c2)OCO3)C2=C(CCCC2=O)N1 (centres undefined)	-2.0	100	-1	i	-31	0.85	100
O=C(CSCc1c(F)cccc1Cl)NCc1ccco1	-1.2	100	0	i	-42	0.85	116
Cn1c(SCC(=O)NC2CC2)nnc1-c1cccc(NC(=O)c2ccccc2F)c1	-0.5	99	0	i	-13	0.95	50
COc1ccc(-n2nc([N+](=O)[O-])c(=NCCC3=CCCCC3)n2O)cc1	x	99	3	i	x	0.88	x
Cc1cc(C)c2cc(C#N)c(N3CCCC3)nc2c1	0.3	99	11	i	x	0.7	x
CCOC(=O)C1=C(C)N(C)C(=O)NC1c1c(C)nn(-c2ccc(C)cc2)c1Cl (centres undefined)	-2.3	114	4	i	0	1	92
COc1ccccc1C(=O)N1CCN(c2ccccn2)CC1	-1.9	99	-15	i	9	0.95	111
CCOC(=O)c1ccc(NC(=O)c2ccc(CN3CCOCC3)cc2)cc1	-2.0	104	-4	i	55	1	139
Cc1cccc(OP(=O)(Nc2c(C)n(C)n(-c3ccccc3)c2=O)Oc2cccc(C)c2)c1	-0.1	94	-5	i	-29	0.88	59

Three records drawn at random from the list so far, as already listed:
compound	GALR2 ag	RGS16-Gao HTS	PKD1 kinase inh	HSV augment	INS promoter inh	HSV augment primary fold	INS promoter inh cell count
COc1ccc(CCNC(=S)NC(=O)c2c(-c3ccccc3Cl)noc2C)cc1OC	x	90	x	i	x	1.1	x
Cn1c(SCC(=O)NC2CC2)nnc1-c1cccc(NC(=O)c2ccccc2F)c1	-0.5	99	0	i	-13	0.95	50
CCOC(=O)C1=C(C)N(C)C(=O)NC1c1c(C)nn(-c2ccc(C)cc2)c1Cl (centres undefined)	-2.3	114	4	i	0	1	92

Further structures
compound	GALR2 ag	RGS16-Gao HTS	PKD1 kinase inh	HSV augment	INS promoter inh	HSV augment primary fold	INS promoter inh cell count
CN1CCN(c2ncc3c(n2)CC(c2ccccc2F)CC3=O)CC1 (centres undefined)	x	102	x	i	x	0.89	x
O=C(c1ccccc1F)N1CCN=C1c1ccccc1	x	102	3	i	15	0.87	168
COCCCn1c(Cc2csc(Nc3ccc(F)cc3)n2)nnc1SCC(N)=O	-2.7	101	-6	i	-9	0.86	81
Cn1c(=N)n(CC(O)c2ccccc2)c2ccccc21 (centres undefined)	-3.5	104	-2	i	12	1	128
CCSc1nnc2n(N)c(=O)c3ccccc3n12	-2.8	98	0	i	-37	0.86	89
COc1cc(O)c(C(CC(=O)N2CCCC2)c2cc(OC)c(OC)c(OC)c2)c(OC)c1 (centres undefined)	x	104	x	i	x	0.82	x
O=S(=O)(CCOc1ccccc1)c1nc2ccccc2[nH]1	-3.6	102	-7	i	-18	0.86	119
O=C(COC(=O)c1ccc2ccccc2n1)Nc1ncc(C(F)(F)F)cc1Cl	-0.1	104	3	i	25	0.75	44
CCC(=O)N(CCC(Cc1ccccc1)c1ccc2c(c1)OCO2)Cc1ccccc1F (centres undefined)	-0.3	108	1	x	38	x	146
CCOc1cc(C2C(C#N)=C(N)OC(C)=C2C(C)=O)cc(Br)c1O (centres undefined)	-1.4	38	4	i	26	1	160
COc1cccc(/C=N/NC(=O)CCn2cnc3ccccc32)c1	x	100	x	i	x	0.91	x
CCOc1ccc(S(=O)(=O)N/N=C(\C)C2CCCCC2)cc1	-1.1	14*	-1	i	-1	1	112
O=C(Oc1cc(-c2ccccc2)no1)c1cccc(C(F)(F)F)c1	-2.1	108	-2	i	0	0.95	115
Cc1ccc(SCC(=O)Nc2nccs2)cc1	x	106	4	i	x	0.98	x
COc1ccc(S(=O)(=O)Nc2c(C)c(C)cc3c2ncn3C)cc1	x	112	2	x	38	x	94
Nc1[nH]n(-c2ccccc2)c(=O)c1N=Nc1ccccc1[N+](=O)[O-]	-2.4	127	-1	i	8	0.9	75
COc1ccc(C(=O)N2CCN(c3ncnc4c(-c5ccccc5)nsc34)CC2)cc1	-0.9	58	-10	x	x	x	x
CNC(=O)CSCc1c(Cl)cccc1Cl	0.5	101	0	i	26	0.68	115
O=C(Nc1ccc(F)cc1)c1ccccc1Oc1ccc(C(F)(F)F)cc1[N+](=O)[O-]	1.0	102	4	i	-22	0.99	134
COCCn1c(-c2ccc(OC)cc2)nc2ccccc21	-1.7	112	5	i	27	1.1	42
Cc1cc(N2C(=O)C(O)=C(C(=O)c3ccc(C)o3)C2c2cccs2)no1 (centres undefined)	-1.8	99	-5	i	-8	0.96	138
O=C(CN1CCCC1)Nc1ccc(-c2nc3cc(NC(=O)CN4CCCC4)ccc3o2)cc1	-2.7	134	-1	i	24	0.84	114
COc1ccc(N2C(=O)C(CN3CCN(C)CC3)C2c2ccccc2)cc1 (centres undefined)	x	99	2	i	x	0.98	x
Cc1nc(C#N)c(N/N=C/c2cccc(Cl)c2)o1	-2.2	100	-7	x	-300	x	71
COP(=O)(/C=C/c1ccccc1)C(O)c1ccc(F)cc1 (centres undefined)	-1.0	94	-1	i	38	0.92	95
COc1cc(/C=N/n2cnnc2)ccc1OC(=O)c1ccco1	x	99	8	i	12	1.1	132
Cc1cc(C)c(C)c(S(=O)(=O)N[C@@H](C)C(=O)OC(C)C(=O)NC(N)=O)c1C (some centres undefined)	x	102	x	i	x	1	x
CSc1ccccc1NC(=O)CN(C)CC(=O)Nc1cc(C)ccc1C	-0.4	117	0	i	-39	1.3	112
O=C(COc1ccc(/C=N/NC(=O)C(=O)N2CCCCCC2)cc1)Nc1ccccc1Cl	0.2	98	-23	x	x	x	x
CCc1cc[n+](CC(=O)Nc2ccc(Cl)cc2Cl)cc1	x	100	1	i	x	1	x

Some of the entries so far, with two lines to a compound:
Second line of a record – GALR2 ag, RGS16-Gao HTS, PKD1 kinase inh, HSV augment, INS promoter inh, HSV augment primary fold, INS promoter inh cell count
> COc1ccc(C(=O)N2CCN(c3ncnc4c(-c5ccccc5)nsc34)CC2)cc1
  -0.9, 58, -10, x, x, x, x
> COc1ccc(N2C(=O)C(CN3CCN(C)CC3)C2c2ccccc2)cc1 (centres undefined)
  x, 99, 2, i, x, 0.98, x

Remaining list, next part
compound	GALR2 ag	RGS16-Gao HTS	PKD1 kinase inh	HSV augment	INS promoter inh	HSV augment primary fold	INS promoter inh cell count
Cc1ccccc1NS(=O)(=O)c1ccc(OCC(=O)NCc2ccco2)cc1	-2.5	101	-2	i	-426	1	32
O=C(O)CSc1nnc(-c2ccco2)o1	-1.6	14	-6	i	x	1	x
O=S(=O)(Nc1nccs1)c1ccc(F)cc1	x	102	8	i	x	1	x
O=C(COc1ccccc1N1C(=O)C2C3C=CC(C3)C2C1=O)c1ccccc1 (centres undefined)	x	98	x	i	x	0.96	x

Screening results from PubChem.
